HNF4A DNA FP: change in binding of human HNF4 alpha to DNA | AID 1224865 | 0.3% of 360,000 active | activity change, % at 10 µM | HNF4a-FITC DNA binding, fluorescence polarization, 1 h | P41235; in the data active = activity change above about 30%, passing the limit was not always enough;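 also: controls were the assay level and a saturating level of protein; the project sought stronger binding though the title names inhibitors; some compounds called inactive have numbers as strong as hits; positive values seem to mean higher polarization but the record does not say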
Target sequence (P41235 whole entry, looked up): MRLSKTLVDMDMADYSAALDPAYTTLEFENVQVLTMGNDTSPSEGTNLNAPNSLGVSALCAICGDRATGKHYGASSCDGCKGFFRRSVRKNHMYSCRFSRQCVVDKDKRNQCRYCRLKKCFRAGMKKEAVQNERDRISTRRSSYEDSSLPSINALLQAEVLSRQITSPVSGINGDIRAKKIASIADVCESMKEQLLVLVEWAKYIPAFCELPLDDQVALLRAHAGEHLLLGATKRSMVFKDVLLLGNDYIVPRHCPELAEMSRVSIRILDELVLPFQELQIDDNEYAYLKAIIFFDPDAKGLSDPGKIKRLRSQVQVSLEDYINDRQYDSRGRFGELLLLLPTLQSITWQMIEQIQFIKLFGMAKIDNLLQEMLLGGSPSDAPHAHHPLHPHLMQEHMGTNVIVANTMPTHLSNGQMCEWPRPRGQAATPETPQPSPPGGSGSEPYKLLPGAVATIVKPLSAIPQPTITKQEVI
B2AR ag: human beta-2 adrenergic receptor agonism by FAP. P07550. Am2.2-beta2AR cells, FAP receptor internalization, flow cytometry; reference of the scale not given here. 0.43% of 340,000 active. response, % (test concentration not listed);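 active = response above a set limit, near 3 SD of response in nonfluorescent compounds, cut at about 42% in these data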;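 also: stock transfer was 100 nL into about 11 µL; a reference agonist was the positive control; negative values mostly stem from fluorescent compounds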
Target sequence (P07550 whole entry, looked up): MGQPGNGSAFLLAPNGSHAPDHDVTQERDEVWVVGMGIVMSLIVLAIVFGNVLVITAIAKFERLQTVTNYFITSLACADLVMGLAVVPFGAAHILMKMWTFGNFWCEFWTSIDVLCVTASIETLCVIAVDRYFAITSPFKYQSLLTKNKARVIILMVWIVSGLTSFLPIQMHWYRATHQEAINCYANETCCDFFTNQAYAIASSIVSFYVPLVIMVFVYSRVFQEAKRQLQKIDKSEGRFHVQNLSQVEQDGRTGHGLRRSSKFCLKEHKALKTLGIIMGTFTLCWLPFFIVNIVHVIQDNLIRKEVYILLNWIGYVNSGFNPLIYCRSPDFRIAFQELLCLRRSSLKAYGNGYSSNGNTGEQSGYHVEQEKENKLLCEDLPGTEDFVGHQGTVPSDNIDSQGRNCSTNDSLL
UCH37 DUB inh: inhibitors of human deubiquitinating enzyme UCH37. inhibition, % (no concentration beside the values). 0.33% of 330,000 active. purified proteasome/UCH37, Ub-AMC cleavage fluorescence;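 active = mean of two replicates above 20%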;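 also: 0% = compound-free wells with enzyme and 100% = wells lacking proteasome; stock transfer was 100 nL into about 20 µL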
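Test system – human UCH37 enzyme supplied as purified proteasome complex · Incubation – 30 min preincubation with enzyme, 25 min cleavage at room temperature · Detection – AMC fluorescence from Ub-AMC cleavage, excitation 355 nm, emission 460 nm · Benchmarks – no-proteasome wells (full inhibition) and compound-free wells (no inhibition)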
FGF22 binding: binders of recombinant human FGF22 by thermal shift | calls only at 9.99 µM | 1.5% of 340,000 active | SYPRO orange fluorescence; percent of sucrose octasulfate shift, DMSO zero | Q9HCT0;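 active = melting point raised past a set limit in the mean and every replicate; three in four hits are not shown here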
ALR H2O2 inh: inhibitors of human sulfhydryl oxidase ALR; P55789; purified ALR, DTT oxidation, H2O2 HRP-luminol luminescence; inhibition, % (no concentration beside the values); 3.8% of 290,000 active; AID 485317;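 active = mean and each replicate at 75% or more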;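 also: stock transfer was 7.5 nL into about 7.5 µL; 0% = neutral wells and 100% = wells with inactivated enzyme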
Ecoli growth: blocks Escherichia coli growth | OD600, 23 h; stronger effect = lower value | OD600 absorbance (no concentration beside the values) | 0.21% of 330,000 active | AID 1053175;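 active = OD600 absorbance below the run mean of sample wells minus 3.6 SD, in any replicate, cut at about 0.56 in these data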;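 also: stock transfer was 300 nL into about 60 µL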
rRNA inh HTS: selective bacterial rRNA inhibition in E. coli; E. coli WT GFP vs humanized-ribosome RFP mutants, fluorescence, 24 h; stronger effect = lower value; DMSO median 0, no signal -100; GFP signal change (wild-type ribosome), % (no concentration beside the values); 1.6% of 350,000 active; AID 720706;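 active = significant combined selectivity score with lowered wild-type GFP, culture density cut under 30%, mutant RFP and density less affected; inactive = any of these conditions unmet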; also: one replicate is shown; some compounds called inactive have numbers as strong as hits
rRNA inh HTS OD600: further read-out of rRNA inh HTS, marked with its call; OD600 change, %; measured here: OD600 growth;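 optical density of the mix in the first replicate; 0 = DMSO median and -100 = no signal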
rRNA inh HTS RFP: recorded beside rRNA inh HTS, whose call it bears; RFP signal change, %; measured here: RFP humanized mutant strains;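 first replicate; 0 = DMSO median and -100 = no signal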
* hit, by the source's call; i = inactive; · = not tested or not shown; + = active, no number.

SMILES	HNF4A DNA FP	B2AR ag	UCH37 DUB inh	FGF22 binding	ALR H2O2 inh	Ecoli growth	rRNA inh HTS	rRNA inh HTS OD600	rRNA inh HTS RFP
OC[C@@H]1CN(Cc2cccnc2)C[C@H](n2cnc3c(N4CCOCC4)ncnc32)O1	1.8	·	·	i	·	·	14	12	5.6
C[C@@H](NC(=O)c1nc[nH]c1C(=O)NC1CCN(C(=O)OC(C)(C)C)CC1)c1ccccc1	0.1	1	2.2	i	-8	·	-27	-51	24
CN1CCN(C(=O)c2ccc(S(=O)(=O)c3ccc(Br)cc3)cc2)CC1	-2.5	-15	1.8	·	-28	0.77	·	·	·
CCN(CC(=O)Nc1ccccc1C(F)(F)F)C(=O)CCc1c(C)[nH]c(=O)c(C#N)c1C	2.8	0	-2.7	i	0	0.67	4	4	-1.0
O=C(NCc1ccccc1F)C(=O)NCC1CCCN1S(=O)(=O)c1cccs1 (stereo unspecified)	-1.8	-9	-0.6	i	-10	0.63	1	-2	1.4
COc1ccccc1NC(=O)C(C)N(C)Cc1ccc(Cl)s1 (stereo unspecified)	-0.5	-5	0.6	i	4	0.64	-30	-44	-9.9
COc1cc(C(=O)NCC(=O)N/N=C(C)\C=C\c2ccccc2)cc(OC)c1OC	0.3	-2	·	i	-3	·	16	10	3.3
COC(=O)NC1CCC(NC(=O)OC)CC1 (stereo unspecified)	0.5	-3	2.4	·	-3	0.7	·	·	·
CNC(=O)Cn1ncc2c3ccccc3n(C)c2c1=O	6.5	-4	-19	·	-5	0.68	·	·	·
CCOc1[nH]n(-c2ccccc2)c(=O)c1C=Nc1ccc(OC)cc1	-1.0	2	3.0	i	3	0.69	4	2	-1.5
Cc1ccc(CNc2ncnc3c2cnn3-c2ccccc2)cc1	-2.8	4	-0.5	·	-7	0.76	·	·	·
Cc1cc(C(O)c2ncc(-c3cccc4ccccc34)[nH]2)ccc1F (stereo unspecified)	1.0	·	·	i	·	·	-57	-79	-15
O=C(CSc1nnc(SCc2ccc(Cl)cc2)s1)N/N=C/c1c[nH]c2ccccc12	112*	-3	·	·	0	·	·	·	·
Cc1ccc(NC(=O)COC(=O)Cn2cnc3c2c(=O)n(C)c(=O)n3C)cc1	-0.5	1	1.0	·	-2	0.67	9	4	2.3
Cc1ccc(N(C)C(=O)c2ccc3c(Cl)c4c(nc3c2)CCC4)cc1C	4.1	2	1.9	i	-10	0.71	-61	-76	-16
Cc1oc2c(c1C(=O)O)C(=O)c1ccccc1C2=O	-4.0	7	49*	i	·	0.67	6	-11	1.5
CSc1nccc(Oc2ccc(C#N)cc2)n1	-1.9	9	3.4	i	2	0.69	0	-7	-1.9
COC(=O)c1cc(S(=O)(=O)Nc2cccc(S(N)(=O)=O)c2)oc1C	1.9	3	6.1	i	-22	0.66	11	-12	-1.6
COc1cccc(CN(C)C(=O)CCN(c2ccccc2)S(=O)(=O)c2ccc(C)cc2)c1OC	1.1	-5	1.8	i	-19	0.6	-22	-32	0.5
COCC(C)n1c(SCC(=O)NC(=O)Cc2ccccc2)nc2ccccc2c1=O (stereo unspecified)	1.9	-3	0.4	i	-1	0.68	5	12	0.2
N#CCCn1cc(C(=O)Nc2ccc([N+](=O)[O-])cc2)c(-c2cc3ccccc3o2)n1	3.7	-20	5.7	i	-14	0.65	4	7	1.4
CC(=O)NC(C)C(=O)OCC(=O)c1ccc(Cl)s1 (stereo unspecified)	1.1	3	7.5	·	-2	0.73	·	·	·
Cc1ccc(S(=O)(=O)NCC(=O)NCc2ccncc2)cc1	3.7	-5	1.1	·	-2	0.7	·	·	·
S=C(NC1CCCCC1)N(CCc1nc2ccccc2[nH]1)C1CCCC1	-2.1	-16	4.3	·	·	0.65	·	·	·
O=C(Cn1cc2c(n1)CCCCC2)Nc1c(F)cc(F)cc1Br	1.0	5	2.4	i	·	0.69	2	-8	-6.3

Three compounds out of the list above, arranged by the number in rRNA inh HTS OD600, rising.
SMILES	HNF4A DNA FP	B2AR ag	UCH37 DUB inh	FGF22 binding	ALR H2O2 inh	Ecoli growth	rRNA inh HTS	rRNA inh HTS OD600	rRNA inh HTS RFP
Cc1ccc(N(C)C(=O)c2ccc3c(Cl)c4c(nc3c2)CCC4)cc1C	4.1	2	1.9	i	-10	0.71	-61	-76	-16
O=C(Cn1cc2c(n1)CCCCC2)Nc1c(F)cc(F)cc1Br	1.0	5	2.4	i	·	0.69	2	-8	-6.3
OC[C@@H]1CN(Cc2cccnc2)C[C@H](n2cnc3c(N4CCOCC4)ncnc32)O1	1.8	·	·	i	·	·	14	12	5.6

(cont.)
SMILES	HNF4A DNA FP	B2AR ag	UCH37 DUB inh	FGF22 binding	ALR H2O2 inh	Ecoli growth	rRNA inh HTS	rRNA inh HTS OD600	rRNA inh HTS RFP
Cc1ccc(S(=O)(=O)N2CCCC2CO)cc1 (stereo unspecified)	-3.8	0	1.2	i	-5	0.7	4	7	1.0
COc1ccc(OCC(O)CNC(=O)c2cccs2)cc1 (stereo unspecified)	-0.8	0	2.3	i	·	0.68	7	4	2.3
O=C1c2ccccc2C(=O)N1CCCCN(C(=O)c1cccc([N+](=O)[O-])c1)c1ccc(Cl)cc1	-2.5	-10	-0.2	·	-2	0.74	·	·	·
O=C(Nc1cccnc1)c1c(O)c2cccc3c2n(c1=O)CC3	1.4	19	-0.1	·	-4	0.72	·	·	·
Cc1cc(C)cc(Oc2cc(NC(=O)c3cn(C)nc3C)cc([N+](=O)[O-])c2)c1	0.5	8	1.9	·	-9	0.74	·	·	·
COc1cc([N+](=O)[O-])ccc1NC(=O)CN1CCCC1	-0.7	3	3.5	+	-2	0.7	17	11	4.4
COc1ccc(CC(=O)OCC(=O)NC(=O)NC2CCCCC2)cc1	8.2	-2	1.1	·	-3	0.71	·	·	·
CCOC(=O)c1ccc(NS(=O)(=O)c2cc(-c3nnnn3C(C)C)ccc2OC)cc1	-0.8	12	-0.7	·	-2	0.77	·	·	·
CC(C)c1onc(C(=O)NCc2ccc(Cl)cc2)c1[N+](=O)[O-]	-1.9	-6	4.1	i	-2	0.66	-2	6	-1.8
Cn1c(C(=O)N2CCCC2)cc2c(=O)n(C)c3ccccc3c21	0.4	-11	·	i	·	·	4	7	0.6
O=C(Nc1ccc(F)cc1)C1CC(=O)n2cnnc2N1 (stereo unspecified)	-1.7	2	0.4	i	-2	0.73	28	19	4.8
CCn1ncc(C2=NOC(C(=O)NCc3ccc(OC)cc3)C2)c1C (stereo unspecified)	0.4	-13	0.6	·	0	0.76	·	·	·
COC(=O)Cn1c(=O)c2c(nc3n2CCCN3Cc2ccccc2)n(C)c1=O	1.1	-2	3.5	i	2	0.67	0	0	-0.4
CC(C)C(=O)Nc1ccc(C(=O)NN2C(=O)c3ccccc3C2=O)cc1	-0.3	2	5.8	i	·	0.67	13	17	5.8
CCOC(=O)Nc1nnc(-c2ccccc2OC)s1	-1.1	-6	-11	·	-3	0.75	·	·	·
COc1cccc(-n2c(-c3ccccc3)c[nH]c2=S)c1	-2.4	12	-0.3	i	17	0.7	1	6	1.2
COc1ccc(-n2nc(C(=O)NCC(=O)N3CCCCCC3)c3ccccc3c2=O)cc1OC	-0.6	-7	3.2	i	-6	0.65	-5	-7	1.2
CCOC(=O)CNc1c(-c2ccc(OC)cc2)nc2ccc(Cl)cn12	1.6	0	-63	·	68	0.68	·	·	·
CCCCCCSc1ccc([C@@H]2[C@H]3C(=O)N(CC)C(=O)[C@H]3[C@]3(C(=O)OC)CCCCN23)cc1OC	12	-1	4.5	i	10	·	7	0	-3.9
O=C(NCCN1CCCC1)C1CCN(S(=O)(=O)N2CCC3(CC2)OCCO3)CC1	0.3	-3	2.1	i	-5	0.65	1	0	-4.9
COc1ccc(OC)c(/C=N/NC(=S)NCCc2ccccc2)c1	0.7	3	·	i	-3	·	-19	-18	-4.7
COc1ccc2c(c1OC)C(=O)N1C2SC(C)(C)[C@H]1C(=O)NC1CCCC1 (stereo partly specified)	1.8	2	-8.4	i	·	0.69	3	6	5.0
Cc1ccc(N(C(=O)c2ccccn2)C(C(=O)NC2CCCCC2)c2ccncc2)cc1 (stereo unspecified)	3.9	9	2.7	i	8	0.64	·	·	·
COc1ccc(C(=O)NC(=S)Nc2cccc3ncccc23)cc1[N+](=O)[O-]	-2.0	16	1.4	i	-18	0.7	-11	-13	-0.4
CC(C)c1cc(C(=O)Nc2cccnc2)no1	1.5	0	1.5	i	-2	0.68	·	·	·

Already shown: seven of the compounds above.
SMILES	HNF4A DNA FP	B2AR ag	UCH37 DUB inh	FGF22 binding	ALR H2O2 inh	Ecoli growth	rRNA inh HTS	rRNA inh HTS OD600	rRNA inh HTS RFP
Cc1ccc(S(=O)(=O)N2CCCC2CO)cc1 (stereo unspecified)	-3.8	0	1.2	i	-5	0.7	4	7	1.0
COc1ccc(OCC(O)CNC(=O)c2cccs2)cc1 (stereo unspecified)	-0.8	0	2.3	i	·	0.68	7	4	2.3
O=C1c2ccccc2C(=O)N1CCCCN(C(=O)c1cccc([N+](=O)[O-])c1)c1ccc(Cl)cc1	-2.5	-10	-0.2	·	-2	0.74	·	·	·
O=C(Nc1cccnc1)c1c(O)c2cccc3c2n(c1=O)CC3	1.4	19	-0.1	·	-4	0.72	·	·	·
Cc1cc(C)cc(Oc2cc(NC(=O)c3cn(C)nc3C)cc([N+](=O)[O-])c2)c1	0.5	8	1.9	·	-9	0.74	·	·	·
COc1cc([N+](=O)[O-])ccc1NC(=O)CN1CCCC1	-0.7	3	3.5	+	-2	0.7	17	11	4.4
COc1ccc(CC(=O)OCC(=O)NC(=O)NC2CCCCC2)cc1	8.2	-2	1.1	·	-3	0.71	·	·	·

(list continues)
SMILES	HNF4A DNA FP	B2AR ag	UCH37 DUB inh	FGF22 binding	ALR H2O2 inh	Ecoli growth	rRNA inh HTS	rRNA inh HTS OD600	rRNA inh HTS RFP
COc1cc(/C=C/C(=O)Nc2ccc(C(C)=O)cc2)cc(OC)c1OC	1.4	7	-6.0	i	-6	0.67	-17	-11	3.1
Cn1c(=O)n(Cc2ccccc2)c2ccccc21	-0.7	-12	-1.3	i	-12	0.65	0	1	-3.0
FC(F)(F)c1ccccc1-c1nc(-c2ccncc2)no1	2.7	14	1.7	i	-3	0.67	-1	0	0.0
CCOc1ccc(/C=N/NC(=O)C(=O)N2CCCCCC2)c2ccccc12	0.1	6	·	i	·	·	-35	-29	-5.8
COc1ccc(NC(=O)CSc2n[nH]c(=O)n2Cc2ccccc2)cc1Cl	1.6	3	2.0	i	-4	0.65	-14	-8	-0.7
CN(C(=O)c1ccc(NC(=O)Cc2cccc(NC(=O)C3CCCN(C(=O)CCc4ccccc4)C3)c2)cc1)C1CCCC1 (stereo unspecified)	-4.1	18	-0.3	i	4	0.75	1	4	-0.3

Some of the compounds tested, so the mix of outcomes need not match the whole.
